Screens from PubChem BioAssay.
H5N1 CPE: MDCK cell protection from H5N1 avian flu | cytopathic effect, luminescence, 72 h; stronger effect = higher value; no value below 0 was filed and about half of the inactive calls have no number; reference of the scale not given here | inhibition, % at 50 µM | actives 0.07% (n = 96,000) | AID 740; in the data active = inhibition above about 25%
* hit, by the source's call; i = inactive. These rows are one share of the data, so the mix of outcomes need not match the whole.

SMILES	H5N1 CPE
CCOC(=O)c1cnc(SCC(=O)Nc2ccc3c(c2)OCCO3)nc1N	0.7
CCCN(CC#CCOc1ccc(OC)cc1)CCC	0.8
COCn1c(-c2ccccc2)nc2ccccc21	1.1
c1ccc(CCC2=NCCn3cccc32)cc1	0.6
CCOc1ccccc1NC(=O)C1CC2CCCC(C1)C2=O (stereo not drawn)	1.1
CCCCn1c(CCNC(=O)c2cccs2)nc2ccccc21	i
CCN(CC(=O)N1CCc2ccccc2C1)S(=O)(=O)c1ccc2ccccc2c1	0.3
Cc1ccc(-n2c(C)cc(/C=N/NC(=O)CN(c3ccc(C)cc3C)S(C)(=O)=O)c2C)cc1	i
CN(C)c1nc2sc3c(c2c(=O)n1C)CC(C)(C)OC3	i
CCOC(=O)C1CCN(S(=O)(=O)c2cccc(-c3cn4cc(C)ccc4n3)c2)CC1	1.5
COc1cc(NS(=O)(=O)c2ccc(NC(=O)/C(=C\c3ccccc3OC)NC(=O)c3ccccc3)cc2)nc(OC)n1	0.9
COCC(=O)Nc1cccc(C(F)(F)F)c1	0.1
COc1cccc(NC(=O)c2nc3nc(C)cc(C(F)F)n3n2)c1	1.2
CC(C)C(c1nnnn1Cc1ccco1)N1CCN(c2cccc(Cl)c2)CC1 (stereo not drawn)	i
CCOC(=O)c1sc2ncnc(NCc3ccco3)c2c1C	4.5
CCn1cc(C(=O)OCC(=O)N(C)C2CCS(=O)(=O)C2)c(=O)c2ccc(C)nc21 (stereo not drawn)	1.0
O=C(NCC(c1ccc(F)cc1)N1CCOCC1)c1ccc(Br)o1 (stereo not drawn)	i
CCCCCn1c(SC(C)C(C)=O)nc2c1c(=O)[nH]c(=O)n2C (stereo not drawn)	2.9
CCCc1c(CC)c(=N)c2ccccc2n1C	0.5
CCN1CCN(C(=O)C(NS(=O)(=O)c2ccc3nc(C)sc3c2)C(C)C)CC1 (stereo not drawn)	1.0
CCCCN=C1N/C(=C\c2ccco2)C(=O)N1c1ccccc1	i
COc1cccc(Cn2c(N)c(C#N)c3nc4ccccc4nc32)c1OC	0.1
Cc1ccc(N=Nc2c(N)n(-c3ccccc3)[nH]c2=O)cc1	i
Cc1[nH]c(=O)[nH]c1CN1CCCCC1	0.1
O=C(COC(=O)c1cccc(S(=O)(=O)NCc2ccccc2)c1)Nc1ccccc1OC(F)F	0.5
CCc1nnc(NC(=O)c2ccc(S(=O)(=O)N(CCOC)CCOC)cc2)o1	i
COc1ccc(CCNc2oc(COc3ccccc3)nc2C#N)cc1	i
COc1cc(OC)cc(C(=O)N(Cc2cc3cc(C)ccc3[nH]c2=O)C(C)C)c1	i
CC(C)COc1ccc(C(=O)Nc2scc(-c3ccc(Cl)cc3Cl)c2C(N)=O)cc1	i
CCC(CC)C(=O)c1c[nH]c(C(=O)NCCc2ccccn2)c1	i
Cc1ccc(Cn2cc(SCC(=O)Nc3nccs3)c3ccccc32)cc1	i
CCn1c(N2CCN(C(=O)C34CC5CC(CC(C5)C3)C4)CC2)nc2ccccc21	1.0
CCN(CCCn1c(=S)[nH]c2ncccc2c1=O)c1ccccc1	i
CN1C(=O)c2cccc(NC(=O)Cc3ccccc3)c2C1=O	i
Cc1nc(Oc2ccccc2)c2oc3ccccc3c2n1	1.0
Cc1nnc(NC(=O)c2sc3nc(-c4cccs4)cc(C(F)(F)F)c3c2N)s1	0.2
CCOCCCNC(=O)C(NC(=O)c1cnccn1)c1ccc(C)cc1 (stereo not drawn)	0.2
O=c1cc(N2CCC3(CC2)OCCO3)[nH]c(=O)n1C1CCCCC1	i
Cc1ccc(C2CC2c2n[nH]c(=S)n2-c2ccc(Cl)cc2)cc1 (stereo not drawn)	i
CCOC(=O)/C(=N\Nc1ccc(OC)cc1)c1csc(Nc2ccccc2)n1	2.1
Cc1ccc(N2CN=c3s/c(=C\c4cccnc4)c(=O)n3C2)cc1	0.2
COCCn1c(SCc2nc3sc(C(=O)OC)c(C)c3c(=O)[nH]2)nc2ccccc21	i
Cc1nc2ccccc2n1CC(O)COCC1CC=CCC1 (stereo not drawn)	2.2
CCc1ccc(C(=O)COC(=O)c2ccc(-c3nnc(-c4ccccc4)o3)cc2)cc1	0.2
Cc1ccc2c(c1)NC(=O)C(CC(=O)NC1CCCCC1C)O2 (stereo not drawn)	2.6
CCCOc1ccc(C2C(C(=O)c3ccco3)=C(O)C(=O)N2CCN2CCOCC2)cc1OC (stereo not drawn)	1.3
Cn1c(Cl)nc2ccccc21	i
CCc1ccc2c(c1)c(N=NC1=NC(=O)CS1)c(O)n2CC	0.9
CC1Oc2ccccc2C=C1/C=C1/SC(N2CCOCC2)=NC1=O (stereo not drawn)	0.9
COc1cccc2c3c(c(C)nc12)CC(C)O3 (stereo not drawn)	i
O=C(c1cccc(Cl)c1)N1CCN(C2CCCCCC2)CC1	1.2
Cc1sc(-c2ccccn2)nc1OC(=O)c1ccc(Cl)c(Cl)c1	0.1
COc1ccc(-c2noc(N(C)CC(=O)Nc3cccc(C(F)(F)F)c3)n2)cc1	0.6
O=c1[nH]c(=O)n(Cc2ccco2)c(O)c1C=NCCN1CCOCC1	0.5
CCn1nnnc1SCC(=O)Nc1cc(OC)cc(OC)c1	0.8
COc1ccc(/C=N/NC(=O)C2CCN(c3ncc(C(F)(F)F)cc3Cl)CC2)cc1	2.9
COc1cc(OC)cc(C(=O)N2CCN(C3CCN(Cc4ccccc4)CC3)CC2)c1	0.3
O=C(NCCc1ccc(Cl)cc1)C1CCN(S(=O)(=O)c2cccc3nonc23)CC1	i
CCc1ccc2[nH]c(=O)c(CN(Cc3ccco3)S(=O)(=O)c3ccc4c(c3)OCCO4)cc2c1	0.4
Cc1cccc(N(CC(=O)NCc2ccc3c(c2)OCO3)C(=O)CCC(=O)Nc2ccccn2)c1C	i

Shown bar-delimited: 16 of the compounds above.
SMILES | H5N1 CPE
Cc1ccc(N2CN=c3s/c(=C\c4cccnc4)c(=O)n3C2)cc1 | 0.2
COCCn1c(SCc2nc3sc(C(=O)OC)c(C)c3c(=O)[nH]2)nc2ccccc21 | i
Cc1nc2ccccc2n1CC(O)COCC1CC=CCC1 (stereo not drawn) | 2.2
CCc1ccc(C(=O)COC(=O)c2ccc(-c3nnc(-c4ccccc4)o3)cc2)cc1 | 0.2
Cc1ccc2c(c1)NC(=O)C(CC(=O)NC1CCCCC1C)O2 (stereo not drawn) | 2.6
CCCOc1ccc(C2C(C(=O)c3ccco3)=C(O)C(=O)N2CCN2CCOCC2)cc1OC (stereo not drawn) | 1.3
Cn1c(Cl)nc2ccccc21 | i
CCc1ccc2c(c1)c(N=NC1=NC(=O)CS1)c(O)n2CC | 0.9
CC1Oc2ccccc2C=C1/C=C1/SC(N2CCOCC2)=NC1=O (stereo not drawn) | 0.9
COc1cccc2c3c(c(C)nc12)CC(C)O3 (stereo not drawn) | i
O=C(c1cccc(Cl)c1)N1CCN(C2CCCCCC2)CC1 | 1.2
Cc1sc(-c2ccccn2)nc1OC(=O)c1ccc(Cl)c(Cl)c1 | 0.1
COc1ccc(-c2noc(N(C)CC(=O)Nc3cccc(C(F)(F)F)c3)n2)cc1 | 0.6
O=c1[nH]c(=O)n(Cc2ccco2)c(O)c1C=NCCN1CCOCC1 | 0.5
CCn1nnnc1SCC(=O)Nc1cc(OC)cc(OC)c1 | 0.8
COc1ccc(/C=N/NC(=O)C2CCN(c3ncc(C(F)(F)F)cc3Cl)CC2)cc1 | 2.9

Carrying on.
SMILES	H5N1 CPE
Cc1nn(-c2ccccc2)c(N2CCCC2)c1/C=N/O	1.0
O=C(NCCCCCNC(=O)c1ccco1)c1ccco1	i
CCOC(=O)c1cc(C#N)c(Oc2ccccc2OC)nc1-c1ccccc1	0.6
Cc1cccc(N(C(=O)CNC(=O)c2ccco2)C(C(=O)NC2CCCC2)c2cccnc2)c1 (stereo not drawn)	i
CC(C)(C)n1ncc2c(=O)n(CC(=O)N3CCCc4ccccc43)cnc21	i
Cc1cc(N2CCN(S(=O)(=O)c3ccc(C)c(C)c3)CC2)c2ccccc2n1	2.2
CCOc1ccccc1NC(=S)NC(=O)CCCOc1ccc(Cl)cc1Cl	2.4
COC(=O)CSc1nnc(-c2ccc(S(=O)(=O)N3CCC(C)CC3)cc2)o1	0.2
Cc1ccc(NC(=O)N(Cc2cccnc2)Cc2ccco2)cc1C	i
Cc1ccc(C(C(=O)NC2CCCC2)N(Cc2cccnc2)C(=O)c2snc(C(N)=O)c2N)o1 (stereo not drawn)	0.9
Cn1c(-c2ccc(Cl)cc2)ccc(C#N)c1=O	i
CC(C)CNC(=O)COC(=O)c1cc(Cl)cc(Cl)c1N	i
O=C(CSc1ccc(Cl)cc1)N1CCN(c2ncc(C(F)(F)F)cc2Cl)CC1	1.0
Cn1cccc1-c1nc2ccc(NC(=O)c3cccs3)cc2[nH]1	3.2
CC(=O)NCC(=O)N(c1c(C)n(C)n(-c2ccccc2)c1=O)C1(C(=O)NC2CCCC2)CCCCC1	0.4
CC1CCCN(c2nc3c(c(=O)n(C)c(=O)n3C)n2CCSc2nc3ccccc3s2)C1 (stereo not drawn)	6.1
CCOC(=O)CSc1nnc(CSc2nc3sc4c(c3c(=O)[nH]2)CCC4)n1-c1ccccc1	0.7
N=c1n(CCO)c2ccccc2n1Cc1ccccc1Cl	i
Cc1cc(NC(=O)C2CC2)ncc1NC(=O)C12CC3CC(CC(C3)C1)C2	3.5
c1cncc(-c2nc3ccccc3[nH]2)c1	i
CCOC(=O)C1CCCN(C(=O)c2ccc3c(c2)NC(=O)C(N2CCOCC2)S3)C1 (stereo not drawn)	0.2
CCOC(=O)CNC(=O)CSc1nc2cccnc2n1Cc1ccccc1	i
CCCCCCOC(=O)CCc1c(C)nc(N)[nH]c1=O	i
Cc1ccc(-c2csc(N3CCC(NS(=O)(=O)c4ccc5c(c4)OCCO5)CC3)n2)cc1	0.8
O=C(Nc1ccc2nsnc2c1)NC1CCCCC1	0.3
Cc1ccc(NC(=O)CNC(=O)c2ccccc2F)cc1Cl	i
OCCNCCOc1ccccc1F	i
O=C(Oc1ccc2[nH]cc(CCN3C(=O)c4ccccc4C3=O)c2c1)c1ccco1	i
CC(C)CCNC(=O)C1CC(=O)N(C2CCCC2)C1 (stereo not drawn)	0.1
O=C1C2CCCN2C(c2ccccc2)N1c1nccs1 (stereo not drawn)	i
CCOc1nc(NCCN2CCOCC2)nc(Nc2ccc(C)cc2)n1	i
CCOC(=O)C1CCN(C(=O)C23CC4CC(CC(C4)C2)C3)CC1	3.5
CC1(C)Cc2nc(N)c(=O)sc2C1	0.4
O=C(CCCOc1ccc(Cl)cc1)N1CCCCC1	0.6
CCOC(=O)C1CCN(C(=O)COc2cc(C)c(Br)cc2C)CC1	1.1
COc1cc2c(cc1OC)C(C(=O)N1CCCCC1)C(c1ccccc1F)N(C)C2=O (stereo not drawn)	i
CCN(CC)c1ccc(CN(C(=O)c2ccco2)C2CCS(=O)(=O)C2)cc1 (stereo not drawn)	0.5
CC(C)Nc1nc(NC(C)C)nc(Oc2ccc(OCc3ccccc3)nn2)n1	i
CCC(C)NC(=O)c1ccccc1NC(=O)C(C)N(c1ccccc1)S(C)(=O)=O (stereo not drawn)	0.3
O=C(CN1CCN(Cc2ccccc2Cl)C1=O)NCc1ccco1	i
CC(C)C(C(=O)NC(C)(C)C)N1C(=O)c2ccccc2C1=O (stereo not drawn)	i
COc1ccccc1C(=O)OCc1c(F)cccc1Cl	2.6
O=C(CCNc1n[nH]c(=O)[nH]c1=O)N1CCCCC1	i
Cc1ccc(Cn2nc(C)c(NC(=O)c3noc4c3CCCCC4)c2C)cc1	0.8
O=C(Nc1ccc2c(c1)CCC2)C1CCCN(c2ncccn2)C1 (stereo not drawn)	i
Cc1ccc(CC2C(=O)N(CC(=O)O)C(=O)C2C)cc1 (stereo not drawn)	i
CC(NC(=O)c1cc(-c2cccs2)on1)c1ccccc1 (stereo not drawn)	4.1
COc1ccc(C(c2sc3nc(C)nn3c2O)N2CCc3ccccc3C2)cc1 (stereo not drawn)	1.9
O=C(CCn1nnc(-c2cccs2)n1)N1CCc2ccccc2C1	0.1
O=C(Nc1ccc(Cl)cc1C(=O)c1ccccc1Cl)c1ccco1	i
Cc1nc2cc(N3CCCCC3)c(NC(=O)c3ccncc3)cc2c(=O)n1Cc1ccccc1	i
CCCc1nc2ccccc2c(=O)n1NC(=O)c1c(O)c2cccc3c2n(c1=O)CCC3	i
C=CCn1c(C)cc(C)c(C#N)c1=O	0.1
O=C(Cc1cccs1)Nc1ccccc1C(=O)O	i
O=C(c1ccc(Br)s1)N1CCN(C/C=C/c2ccccc2)CC1	i
O=C(c1ccc(Cn2cc([N+](=O)[O-])cn2)o1)N1N=C(C(F)F)CC1(O)C(F)F (stereo not drawn)	i
COc1ccc(NC(=S)NN2CCN(C)CC2)cc1	i
C=CCn1c(SCc2c(C)noc2C)nc2cc(C(=O)O)ccc2c1=O	0.5
CC(=O)Nc1cc(C(=O)N2CCCC2)ccc1S(=O)(=O)c1ccc(Cl)cc1	i
Cc1cc(C(=O)O)cc(S(=O)(=O)N2CCOCC2)c1C	0.7

In another format: results already given.
COc1ccc(C(c2sc3nc(C)nn3c2O)N2CCc3ccccc3C2)cc1 (stereo not drawn)
  H5N1 CPE = 1.9
CC(=O)Nc1cc(C(=O)N2CCCC2)ccc1S(=O)(=O)c1ccc(Cl)cc1
  H5N1 CPE = i

Additional structures
SMILES	H5N1 CPE
COc1ccc(C(=O)NCCCN2CCCC2=O)cc1	i
CC(C)(C)N1CC2(c3ccccc3)CN(C(C)(C)C)CC(c3ccccc3)(C1)C2=O	0.4
O=C(CSc1nnc(-c2ccncc2)o1)Oc1ccccc1	i
O=C(NCCSc1c[nH]c2ccccc12)C1CC1	0.1
COc1ccccc1N1CCN(C(=O)c2cc3n(n2)C(C(F)(F)F)CC(c2ccco2)N3)CC1 (stereo not drawn)	i
CC(=O)Nc1nc(SCc2ccc(Cl)cc2Cl)n[nH]1	i
CCOc1ccc2c(c1)c(C(C)=O)c(C)n2-c1ccccc1	1.0
C=CCN(c1ccccc1)S(=O)(=O)c1ccc2c(c1)oc(=O)n2C	1.7
N=c1n(CC(=O)O)c2ccccc2n1Cc1ccccc1Cl	i
CCc1nnc(NC(=O)CSc2nnc(COc3cccc(C)c3)o2)s1	i
CCOc1ccc(-c2nnn(CC(=O)NCc3ccco3)n2)cc1	i
CCSc1nc(N)c2c3c(sc2n1)CN(C)CC3	i
COc1cc(/C=N/n2c(SC)nnc(C(C)(C)C)c2=O)ccc1O	i
CCCNS(=O)(=O)c1ccc(OCC(=O)OC)cc1	i
